Screening data (PubChem BioAssay)
quorum sensing: Vibrio cholerae quorum sensing activators, luminescence (AID 686977); V. cholerae quorum sensing reporter, luminescence, 6 h; higher luminescence means a stronger effect; most inactives read 0; one-dose luminescence at 50 µM unless noted; EC50 in µM for titrated hits; 9,400 tested, under 10 active;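 active = light above mean plus 3 SD and confirmed in a dose series; inconclusive = above that limit without a clear retest; inactive = below it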;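 also: raw light counts without normalisation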
An asterisk follows results filed as active; ? = inconclusive; [ ] = remark or other dose.

entry	molecule	quorum sensing
1	Fc1ccccc1/C=C1\CCCC2=C1Nc1nnnn1C2c1ccccc1F (stereo unspecified)	0
2	C[n+]1cccc(C(=O)[O-])c1	0[10 µg/mL]
3	COc1ccccc1C1CC(c2ccc(Cl)cc2Cl)Nc2nc(N)nn21 (stereo unspecified)	0
4	CCN1C[C@@]2(COC)C3[C@@H](OC)[C@H]4[C@@H]1[C@@]3(C1C[C@@]3(O)[C@H](OC(=O)c5ccccc5)C1[C@]4(OC(C)=O)[C@@H](O)[C@H]3OC)[C@@H](OC)C[C@H]2O (stereo partly specified)	0[10 µg/mL]
5	O=[N+]([O-])c1cccc(/C=N/n2c(COc3ccccc3)n[nH]c2=S)c1	160
6	FC(F)(F)c1cc(-c2cccs2)nc(-n2cc(Br)cn2)n1	0
7	O=c1[nH]c2ccccc2n1CCC1CCCCC1	0
8	O=C(CSc1ccccn1)Nc1nc2ccc(Br)cc2s1	0
9	COc1ccc2[nH]c(=O)c(CN(CCCN3CCOCC3)C(=O)NCc3ccccc3)cc2c1	40
10	C[C@]12CC[C@H]3[C@@H](CC[C@]4(O)C[C@@H](O)CC[C@]34C=O)[C@@]1(O)CC[C@@H]2C1=CC(=O)OC1	280[10 µg/mL]
11	O=C(NC1CCCC1)C1CCCN(S(=O)(=O)c2cnc[nH]2)C1 (stereo unspecified)	0
12	CCOC(=O)C1(CC)NC(c2ccco2)C2C(=O)N(c3ccc(C)cc3)C(=O)C21 (stereo unspecified)	40
13	COc1ccc(NC(=O)c2c(SC)nsc2SC)cc1	0
14	Cn1c(O)c(C=NC2C(=O)C3(C)CCC2C3(C)C)c(=O)n(C)c1=O (stereo unspecified)	280
15	CCOC(=O)N1CCN(C(=O)C(=O)Nc2ccc3nc4n(c(=O)c3c2)CCCCC4)CC1	0
16	COC(=O)c1nn(-c2ccccc2)ccc1=O	0
17	CCC1CCCCN1c1cc(C)nc2cc(-c3cccc(C)c3)nn12 (stereo unspecified)	40
18	CCOC(=O)N1CCN(C(=O)c2cc(S(=O)(=O)N3CCCC3)cn2C)CC1	40
19	Cc1nn(-c2ncc(C(F)(F)F)cc2Cl)c(=O)n1-c1ccccc1	?
20	CCCOC(=S)NC(=O)c1sc2ccccc2c1Cl	0
21	CC(C)SCCCOc1ccc(C(C)(C)C)cc1	0
22	CCOC(=O)[C@H](CCc1ccccc1)N[C@@H](C)C(=O)N1CCC[C@H]1C(=O)O	0[10 µg/mL]
23	O=C(Nc1nnc(-c2ccc3c(c2)OCCO3)o1)c1ccc(Cc2ccccc2)cc1	0
24	C=C(C)[C@@H]1C2C(=O)O[C@H]1[C@H]1OC(=O)[C@@]34OC3C[C@]2(O)[C@@]14C (stereo partly specified)	0[10 µg/mL]
25	CC(=NCCCn1ccnc1)c1c(-c2ccccc2)[nH]n(-c2nc3ccccc3s2)c1=O	0
26	CN=C1SC(C(=O)O)CC(=O)N1C (stereo unspecified)	0
27	N/C(=N\OC(=O)Cc1ccc(-c2ccccc2)cc1)c1cccnc1	0
28	Cc1nnc(SCC(=O)Nc2ccc3c(c2)COC3=O)n1-c1ccccc1	0
29	COCCNC(=O)CSc1nc2ccc(N3CCOCC3)cc2c(=O)n1CCc1ccccc1	0
30	Cc1cc(NC(=O)C2=C(O)c3ccccc3S(=O)(=O)N2C)no1	0[10 µg/mL]
31	CCNc1nc(C)nc2c1oc1ccccc12	0
32	O=C(O)COCCN1CCN(C(c2ccccc2)c2ccc(Cl)cc2)CC1 (stereo unspecified)	0[10 µg/mL]
33	CCOC(=O)C(NCCCCl)c1ccccc1 (stereo unspecified)	0
34	O=C(Cc1cc(=O)[nH]c(=O)[nH]1)NCCN1CCOCC1	0
35	CC1CN(C(c2cccs2)c2sc3ncnn3c2O)CC(C)O1 (stereo unspecified)	0
36	CCOc1cc2[nH]c(=S)n(CCCCC(=O)NCc3ccco3)c(=O)c2cc1OCC	0
37	COc1ccccc1N1CCN(CCCCNC(=O)c2ccc3ccccc3c2)CC1	40[10 µg/mL]
38	COc1ccccc1C(=O)Oc1cc(N)n(S(=O)(=O)c2ccc(C)cc2)n1	0
39	CC(=O)N1CCN=C1SCc1ccccc1	0
40	Cn1c(SCc2cccnc2)nnc1-c1c[nH]c2ccccc12	0
41	Oc1c(C(c2cccs2)N2CCN(c3ccc(F)cc3)CC2)sc2ncnn12 (stereo unspecified)	40
42	O=S(=O)(c1ccc(Br)cc1)N1CCn2c(nc3ccccc32)C1	0
43	O=C(Nc1cc(C(F)(F)F)ccc1N1CCOCC1)c1ccc(Cl)nc1	0
44	OCC#CCSc1nnc(-c2ccccc2Br)o1	40
45	CCOC(=O)C1=C(C)NC(=O)NC1c1c(O)ccc2ccccc12 (stereo unspecified)	0
46	COc1cc(C(c2c(C)[nH][nH]c2=O)c2c(C)[nH][nH]c2=O)ccc1OS(=O)(=O)c1ccc(C)cc1	0
47	COC(=O)CC(=O)CSc1nc(C)cc(C)c1C#N	0
48	Cc1ccc(Cn2nnc3c(=O)[nH]c(C4CCN(C(=O)c5cccs5)CC4)nc32)cc1	0

Entries by screen from the list.
quorum sensing, compounds 38 to 45 → 0, 0, 0, 40, 0, 0, 40, 0

Back to the main list, starting two compounds before the break.
entry	molecule	quorum sensing
47	COC(=O)CC(=O)CSc1nc(C)cc(C)c1C#N	0
48	Cc1ccc(Cn2nnc3c(=O)[nH]c(C4CCN(C(=O)c5cccs5)CC4)nc32)cc1	0
49	O=C1c2ccccc2C(Nc2ccccc2F)N1c1cccnc1 (stereo unspecified)	0
50	O=c1c(O)c(-c2ccc(O)cc2)oc2cc(O)cc(O)c12	0[10 µg/mL]
51	CCC(=O)Nc1cccc(C(=O)OCC(=O)c2ccccc2Cl)c1	40
52	COc1ccc(OCC(=O)NNC(=O)c2ccccn2)cc1	0
53	c1ccc(N2CCN(c3nc4ccccc4n4cnnc34)CC2)cc1	0
54	O=S(=O)(/C=C/c1ccccc1)N1CCN(c2cccc(Cl)c2)CC1	0
55	O=C(NC1CCS(=O)(=O)C1)c1cnccn1 (stereo unspecified)	0
56	Cc1cccc(C(=O)NNC(=O)c2ccc(Cl)cc2)c1O	0
57	CCOC(=O)CCc1c(C)nc2cc(-c3ccccc3OC)[nH]n2c1=O	0
58	COC(=O)CSc1nc(-c2ccccc2)nc2ccc(F)cc12	40
59	COc1ccc(N2CCN(CC(=O)Nc3nnc(-c4ccccc4)s3)CC2)cc1	0
60	Cc1nnc(NC(=O)c2oc3cc(C)c(C)cc3c2C)s1	0
61	N#CC1=C(N)OC2=C(C(=O)CCC2)C1c1ccsc1 (stereo unspecified)	0
62	Cc1cc(O)c(C=Nc2cccc(Cl)c2)c(=O)o1	40
63	COc1cccc(C2CC(c3ccccc3C)n3nc(N)nc3N2)c1 (stereo unspecified)	0
64	O=C(Nc1nc(-c2ccccn2)cs1)C1CC1	40
65	c1cncc(C2=NCCC2)c1	40[10 µg/mL]
66	CCCCN1CCCCC1C(=O)Nc1c(C)cccc1C (stereo unspecified)	0[10 µg/mL]
67	CCOC(=O)c1ccc(NCc2nc3ccccc3[nH]2)cc1	0
68	CCCCCn1c(=O)[nH]c2cc(C(=O)N3CCN(Cc4ccc5c(c4)OCO5)CC3)ccc2c1=O	0
69	O=C(Cn1cnc2c(nnn2Cc2ccccc2)c1=O)N1CCN(c2ccccc2)CC1	?
70	COc1ccc(C(C(=O)NC2CCCCC2)N(C(=O)c2cccs2)c2ccc3c(c2)OCO3)cc1 (stereo unspecified)	0
71	O=S(=O)(c1ccc(OCC(O)CN2CCN(c3ccccc3)CC2)cc1)N1CCOCC1 (stereo unspecified)	0
72	Cc1ccc(-c2c(C)n([O-])c3c([n+]2=O)CCCC3)o1	0

Pulled by structure from the list above, 5 records:
entry	molecule	quorum sensing
69	O=C(Cn1cnc2c(nnn2Cc2ccccc2)c1=O)N1CCN(c2ccccc2)CC1	?
66	CCCCN1CCCCC1C(=O)Nc1c(C)cccc1C (stereo unspecified)	0[10 µg/mL]
67	CCOC(=O)c1ccc(NCc2nc3ccccc3[nH]2)cc1	0
71	O=S(=O)(c1ccc(OCC(O)CN2CCN(c3ccccc3)CC2)cc1)N1CCOCC1 (stereo unspecified)	0
64	O=C(Nc1nc(-c2ccccn2)cs1)C1CC1	40

(list continues)
entry	molecule	quorum sensing
73	C(/C=C/C=C/Nc1ccccc1)=Nc1ccccc1	0
74	c1ccc(OCCCn2nnc(-c3ccncc3)n2)cc1	?
75	Cc1[nH]c(C)c2c(=O)n(-c3ccccc3)ncc12	0
76	CCOC(=O)c1c(N)n[nH]c1-c1ccccc1	0
77	COCCn1c(SCC(=O)c2[nH]c(C)c(C(C)=O)c2C)nc2ccccc21	40
78	CCN(CC)S(=O)(=O)c1c(Br)cc(C)cc1Br	?
79	Cc1cc(Nc2ccc(F)cc2)n2nc(C)nc2n1	0
80	CCc1nnc(NC(=O)c2ccc(S(=O)(=O)N3CCOCC3)cc2)s1	40
81	COc1ccc(NC(=O)N(Cc2ccc(C)cc2)Cc2cccnc2)c(OC)c1	0
82	CC1(C)Cc2c(C#N)c(SCc3ccccc3)nc(N3CCOCC3)c2CO1	0
83	O=C(CSc1nc2ccccc2c(=O)n1Cc1ccco1)N1CCN(c2ccccc2)CC1	320
84	c1ccc(-c2nnc3sc(Cc4cccs4)nn23)cc1	280
85	Cc1c(CN(C)C)c2c(n1Cc1ccccc1)C(=O)c1ccccc1-2	40
86	CS(=O)(=O)Nc1ccc(C(=O)NC2CC3CCC2C3)cc1 (stereo unspecified)	40
87	CCCC1O[C@@H]2C[C@H]3[C@@H]4CCC5=CC(=O)C=C[C@]5(C)[C@H]4[C@@H](O)C[C@]3(C)[C@]2(C(=O)CO)O1 (stereo partly specified)	0[10 µg/mL]
88	CCOc1ccc(N(CC(=O)Nc2ccc(F)c(F)c2)S(=O)(=O)c2c(C)noc2C)cc1	0
89	CCN(C(=O)CCN1C(=O)c2ccccc2C1=O)C1CCCCC1	40
90	Cc1ccc(NC(=O)CN2C(=O)CN=C(c3ccccc3)c3cc(Cl)ccc32)cc1	40
91	Cn1cccc1Cc1nnc(SCC(=O)Nc2ccccc2F)n1CCc1ccccc1	0
92	CCN(CC)C1CC(=O)N(c2cccc(C)c2)C1=O (stereo unspecified)	0
93	CCN(CC)CCCOC(=O)C1(c2ccccc2)CCCC1	40
94	CCOc1ccc(S(=O)(=O)NCC2CCCO2)cc1 (stereo unspecified)	0
95	N#Cc1nc(Cc2ccccc2)oc1N1CCN(c2ccccc2)CC1	0
96	O=C(Cc1cc(=O)[nH]c(=O)[nH]1)N1CCC(Cc2ccccc2)CC1	40
97	COc1cc2c3nnc(-c4ccc(F)cc4)c-3cn(Cc3ccc(C)cc3)c2cc1OC	0
98	COc1cc2c(cc1NC(=O)c1cccc([N+](=O)[O-])c1)oc1ccccc12	0
99	CCC(C)C(N)C1=NC(C(=O)N[C@@H](CC(C)C)C(=O)N[C@H](CCC(=O)O)C(=O)N[C@H](C(=O)N[C@H]2CCCCNC(=O)[C@H](CC(N)=O)NC(=O)[C@@H](CC(=O)O)NC(=O)[C@H](Cc3cnc[nH]3)NC(=O)[C@@H](Cc3ccccc3)NC(=O)[C@H]([C@@H](C)CC)NC(=O)[C@@H](CCCN)NC2=O)[C@@H](C)CC)CS1 (stereo partly specified)	80[10 µg/mL]
100	COc1ccc2nc(-c3ccccc3)[nH]c2c1	0
101	COc1cc2c(cc1OC)C(c1cccs1)NCC2 (stereo unspecified)	40
102	CCOC(=O)c1ccc(NC(=O)CN(Cc2ccc(Cl)cc2)S(C)(=O)=O)cc1	0
103	Cc1nc(NCCc2ccc(S(N)(=O)=O)cc2)c2c(C)c(C)sc2n1	0
104	CCNC(=O)C1CC(=O)N(CC)C(=Nc2cc(Cl)c(O)c(Cl)c2)S1 (stereo unspecified)	40
105	O=C(c1sc2ccccc2c1Cl)N1CCC2(CC1)OCCO2	0
106	O=C(O)c1coc2ccccc12	0
107	Cc1ccccc1CS(=O)(=O)CCC(=O)N1CCN(c2ccc(N3CCOCC3)nn2)CC1	0
108	COc1ccc2cc(CCNC(=O)c3c(-c4ccccc4Cl)noc3C)c(=O)[nH]c2c1	0
109	Cc1ccc(C(=O)NCc2ccc(Cl)c(Cl)c2)o1	40
110	CCOC(=O)c1ccc(C(=O)OCC)nc1	0
111	COc1cc(Cc2cnc(N)nc2N)cc(OC)c1OC	40[10 µg/mL]
112	CCOC(=O)N1CCN(C(=O)c2ccc(CS(=O)(=O)c3c(Cl)cccc3Cl)o2)CC1	40
113	O=C(NCn1cnccc1=O)c1ccccc1	0
114	Cn1c(=O)c(=O)n(C)c2cc(S(=O)(=O)N3CCN(C4CCCCC4)CC3)ccc21	?
115	Cc1cccc(-n2c(=O)[nH]c3c(C(N)=O)nc(-c4ccccc4Cl)nc32)c1	0
116	CO[C@]12C[C@@H](COC(=O)c3cncc(Br)c3)CN(C)[C@@H]1Cc1cn(C)c3cccc2c13	0[10 µg/mL]
117	COc1ccc(N(CC(=O)NCc2ccc3c(c2)OCO3)S(=O)(=O)c2c(C)nn(C)c2C)cc1	240
118	COC(=O)/C(=C\Nc1ccc(Cl)c2ccccc12)c1ncc(C(F)(F)F)cc1Cl	40
119	Cc1ccc(SCC2(O)CCN(S(=O)(=O)c3ccc(Cl)cc3)CC2)cc1	0
120	OC(COc1ccc2c(c1)OCO2)CN1CCc2ccccc2C1 (stereo unspecified)	0
121	CN(CCCCC(=O)/C=N/O)Cc1ccccc1 (tested in a mixture with another compound)	0
122	O=C(O)C1CCCNC1 (stereo unspecified)	?
123	CC(=O)OCCCCON1C(=O)c2ccccc2C1=O	40
124	COC(=O)CSc1nnc([C@H](Cc2ccccc2)NC(=O)OC(C)(C)C)o1	0

This is a subset; the hit share may differ from the screen's.
